B2AR ag – agonists of human beta-2 adrenergic receptor inducing internalization | P07550 | Am2.2-beta2AR cells, FAP receptor internalization, flow cytometry; reference of the scale not given here | response, % (concentration not given with the values) | 340,000 compounds, 0.43% hits | AID 504454;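 active = response above a set limit, near 3 SD of response in nonfluorescent compounds, cut at about 42% in these data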;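 also: stock transfer was 100 nL into about 11 µL; a reference agonist was the positive control; negative values mostly stem from fluorescent compounds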
LANA-H2B inh – blocks KSHV LANA binding to histone H2A/H2B; Q9QR71; cell-free LANA-H2A/H2B peptide, fluorescence polarization; inhibition, % (test concentration not listed); 320,000 compounds, 0.6% hits; in the data active = inhibition mostly above about 10%, no sharp cut-off; inactive = mostly below about 6.7%;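 also: stock transfer was 7.5 nL into about 10 µL; 0% = median of vehicle wells and 100% = median of positive control wells; one replicate is shown; the record names a cut of 25% in any replicate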
Target sequence (Q9QR71 whole entry, looked up): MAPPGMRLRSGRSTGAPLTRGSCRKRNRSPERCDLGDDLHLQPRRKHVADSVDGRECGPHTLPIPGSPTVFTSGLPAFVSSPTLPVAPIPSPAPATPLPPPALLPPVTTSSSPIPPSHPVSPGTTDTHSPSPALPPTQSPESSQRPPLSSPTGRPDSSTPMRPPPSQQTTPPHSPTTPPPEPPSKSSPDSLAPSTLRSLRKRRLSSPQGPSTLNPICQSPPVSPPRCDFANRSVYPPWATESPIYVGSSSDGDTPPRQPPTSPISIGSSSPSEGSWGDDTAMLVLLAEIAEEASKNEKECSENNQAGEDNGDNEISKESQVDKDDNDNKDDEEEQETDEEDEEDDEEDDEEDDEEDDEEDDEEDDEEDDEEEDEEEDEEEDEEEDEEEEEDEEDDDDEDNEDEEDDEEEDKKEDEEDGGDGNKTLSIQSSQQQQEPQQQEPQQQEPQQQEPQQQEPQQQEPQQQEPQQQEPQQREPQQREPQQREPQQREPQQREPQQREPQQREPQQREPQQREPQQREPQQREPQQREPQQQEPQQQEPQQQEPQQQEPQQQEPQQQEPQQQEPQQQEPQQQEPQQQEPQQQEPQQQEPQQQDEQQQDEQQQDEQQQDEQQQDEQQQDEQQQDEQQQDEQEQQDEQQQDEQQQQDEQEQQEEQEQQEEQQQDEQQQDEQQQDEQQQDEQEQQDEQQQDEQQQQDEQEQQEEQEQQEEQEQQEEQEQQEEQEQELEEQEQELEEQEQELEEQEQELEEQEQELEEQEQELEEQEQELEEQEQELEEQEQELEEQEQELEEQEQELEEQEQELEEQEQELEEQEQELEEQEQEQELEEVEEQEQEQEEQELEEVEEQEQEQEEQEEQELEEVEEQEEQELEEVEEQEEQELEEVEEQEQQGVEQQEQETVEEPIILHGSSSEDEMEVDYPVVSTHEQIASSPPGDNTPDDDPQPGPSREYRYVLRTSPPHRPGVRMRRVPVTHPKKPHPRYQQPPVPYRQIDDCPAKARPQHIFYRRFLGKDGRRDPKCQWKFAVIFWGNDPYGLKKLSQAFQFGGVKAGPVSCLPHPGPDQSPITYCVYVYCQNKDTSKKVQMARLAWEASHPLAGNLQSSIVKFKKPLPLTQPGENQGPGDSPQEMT
Beta apoptosis – beta cell apoptosis inhibition. INS-1E cytokine-induced death, ATP luminescence, 48 h; percent of positive-control rescue, neutral wells zero. protection from apoptosis, % (test concentration not listed). 300,000 compounds, 0.8% hits;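 active = all replicates at 75% or more, or half of them and the mean; inconclusive = half reach 75% but not the mean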;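 also: 0% = cytokine-treated negative control wells and 100% = positive control rescue; higher means more ATP so stronger rescue from cytokine killing; wells of about 40 µL received 100 nL stock; the first replicate is given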
Bfl-1 A1 inh – inhibitors of the anti-apoptotic protein A1, read as caspase activation; MEF A1-2A-BIM cells, Caspase-Glo 3/7 luminescence, 3 h; percent of clofoctol response, vehicle zero; caspase activation, % (no concentration beside the values); 330,000 compounds, 0.066% hits; AID 2462;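 active = over half of replicate activation scores above 10%, or exactly half above 10 with the replicate mean above 10; inconclusive = replicate mean below 10 yet half the replicates above 10; inactive = over half of replicates below 10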;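 also: wells of about 30 µL received 50 nL stock; many hits fall short of the cut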
RanGTP-Imp inh – inhibitors of RanGTP-importin-beta interaction, primary screen, biochemical, FRET, CFP-Ran, YFP-importin-beta, homogeneous. AID 2216. 300,000 compounds, 1.1% hits. cell-free CFP-Ran/YFP-importin-beta FRET ratio. inhibition, % (no concentration beside the values);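 active = most replicates above 15%; inconclusive = exactly half above 15%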;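 also: 0% = DMSO wells and 100% = Ran loaded with GDP instead of GTP; wells of about 40 µL received 100 nL stock; the first replicate is given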
T cruzi inh – blocks replication of Trypanosoma cruzi. T. cruzi beta-gal in NIH3T3, luminescence, 90 h. inhibition, % (concentration not given with the values). 300,000 compounds, 1.4% hits;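 active = mean inhibition across valid replicates above about 55%, limit read from the data; inconclusive = mean below that limit but half or more replicates reach it; inactive = mean below it, under half of replicates reach it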;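 also: signal also drops with host cell toxicity which is not excluded here; 0% = plate median of DMSO wells and 100% = zero luminescence signal; higher percent means less beta-gal luminescence so fewer parasites; stock transfer was 50 nL into about 50 µL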
Calb FLC – C. albicans growth modulation with fluconazole; C. albicans CaCi-2 (fluconazole-resistant clinical isolate) + fluconazole, Alamar Blue growth, 48 h; AID 1979; 300,000 compounds, 0.57% hits; growth inhibition, % (test concentration not listed);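 active = most replicates above 75%; inconclusive = exactly half above 75%; inactive = most below 75%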;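 also: all wells also contain fluconazole at 8 µg/ml as a sub-toxic cotreatment; 0% = median of DMSO wells and 100% = median of geldanamycin control wells; wells of about 8 µL received 7.5 nL stock; the first replicate is given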
UCH37 inh – inhibitors of human deubiquitinating enzyme UCH37; purified proteasome/UCH37, Ub-AMC cleavage fluorescence; inhibition, % (concentration not given with the values); 330,000 compounds, 0.33% hits; AID 588478;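 active = mean of two replicates above 20%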;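 also: 0% = compound-free wells with enzyme and 100% = wells lacking proteasome; stock transfer was 100 nL into about 20 µL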
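Test system – human UCH37 enzyme supplied as purified proteasome complex · Incubation – 30 min preincubation with enzyme, 25 min cleavage at room temperature · Detection – AMC fluorescence from Ub-AMC cleavage, excitation 355 nm, emission 460 nm · Benchmarks – no-proteasome wells (full inhibition) and compound-free wells (no inhibition)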
Starred values were filed as active, the others as inactive; ? = inconclusive; / = no result given.

SMILES	B2AR ag	LANA-H2B inh	Beta apoptosis	Bfl-1 A1 inh	RanGTP-Imp inh	T cruzi inh	Calb FLC	UCH37 inh
COc1ccc(NC(=O)Nc2sc(NS(=O)(=O)c3ccccc3)nc2C)cc1	6	-1.7	-2	1.5	-1.8	-13	-4	2.2
COc1ccc(NC(=O)CN2CCN(S(=O)(=O)N(C)C)CC2)cc1	2	-3.5	7	-0.3	4.0	-9	4	-2.0
COC(=O)c1c(C(=O)OC)c(C)n(Cc2cccnc2)c1C	7	-2.3	-2	0.1	6.5	0	-5	5.0
Cc1nc(C(=O)O)cc2c1[nH]c1ccccc12	3	-0.8	-6	0.4	8.6	-1	-5	-477
Cc1nn(Cc2ccccc2)c2c1C(c1ccncc1)C(C#N)=C(N)O2 (stereo not given)	1	-1.5	-1	-0.6	-4.3	-12	-1	8.0
CCCc1nc2sc3c(c2c(=O)n1N)CCC3	1	-2.6	-11	3.4	0.3	-14	-3	2.0
CN(C(=O)Nc1cnc2ccccc2c1)c1ccccc1	-2	1.8	-7	-0.5	-1.6	-11	2	4.7
Cc1ccc(C(=O)Nc2ccc(S(=O)(=O)N3CCN(C)CC3)cc2)o1	10	0.3	-2	0.1	-2.3	-23	26	0.9
COc1ccc(C2c3ccc4ccccc4c3Oc3ncn(CCN(C)C)c(=N)c32)cc1 (stereo not given)	24	-4.4	7	-0.6	1.4	59*	25	11
CCOc1ccc(OCC(=O)OC(C)C(=O)NC2CCCC2)cc1 (stereo not given)	0	-2.6	-2	-0.6	/	/	/	5.6
CCNc1nc(NCC)nc(OCCOC(=O)Nc2ccccc2)n1	1	-0.6	/	1.5	0.6	-6	36	1.7
Cc1nn(Cc2ccc(C(=O)NN)cc2)c(C)c1Cl	-6	-4.8	-3	-0.2	-0.5	-3	-20	4.8
CCC(Cc1ccccc1)NC(=O)C1=C(C)C(=O)OC12CCC(C)CC2 (stereo not given)	-2	-1.4	5	0.3	-1.3	3	-4	9.5
COc1ccc(S(=O)(=O)N2CCC(C(=O)NCc3ccncc3)CC2)cc1Cl	16	1.4	-1	0.3	3.9	5	-1	1.2
O=C(O)c1ccccc1C(=O)NCc1cccnc1	1	0.1	/	-0.6	-2.0	-1	-9	1.4
Cn1cnnc1Sc1ccc(C(=O)NCCC23CC4CC(CC(C4)C2)C3)cc1[N+](=O)[O-]	2	0.8	-3	?	1.6	32	8	3.8
CCN(C(=O)CSc1ccc2ccccc2n1)C1CCS(=O)(=O)C1 (stereo not given)	-8	0.7	-6	-0.2	-0.3	-4	-3	5.6
CC1(C)Cc2ccccc2C2CC(O)C(=O)N21 (stereo not given)	-66	-0.4	5	-0.2	-1.1	5	6	3.7
CCC1CCCCN1Cc1ccc(OC)c(OC)c1 (stereo not given)	12	3.7	-1	-0.5	-3.4	13	3	1.5
O=C(CSc1nncs1)NC(=O)NCc1ccccc1	9	1.2	-6	0.6	-0.8	-6	-24	0.9
O=C(O)CCCc1c(-[n+]2ccccc2)[nH]c2ccccc12	-10	0.6	0	-0.3	2.6	7	-7	5.2
COc1ccc(OCC(NS(=O)(=O)c2ccc(-n3cnnn3)cc2)C(C)C)cc1 (stereo not given)	-14	-9.1	1	-0.2	-0.2	7	13	2.2
COc1cc2c(cc1OC)CN(C(=O)CSc1nnc(C)s1)CC2	-3	2.6	-1	-0.4	0.2	-12	10	-15
CCN1CCN(C(c2cccc(OC)c2OC)c2nnnn2Cc2ccco2)CC1 (stereo not given)	0	2.1	-2	0.7	-2.2	-6	-5	-1.4
CCOc1ccc(S(=O)(=O)NCCC(=O)NCc2ccncc2)cc1	-2	10	-3	-0.1	-1.4	-5	-8	1.9
C=CCNC(=O)COC(=O)c1ccc(Cl)c(S(=O)(=O)N(Cc2ccccc2)c2ccccc2)c1	-4	-3.8	-5	-0.7	1.2	4	?	3.7
O=C(CN1CCN(C(=O)c2c(F)cccc2F)CC1)Nc1ccccc1C(F)(F)F	-8	1.8	/	-1.0	6.4	-4	7	-0.2
CCN(CC)S(=O)(=O)c1ccc(O)c(C(=O)OCC(=O)N2c3ccccc3CC2C)c1 (stereo not given)	6	-3.6	-8	-0.1	6.9	-7	4	-3.6
CC(C)(C)C(=O)NCCc1nc2ccccc2n1CC(=O)c1ccc(Cl)cc1	11	-1.4	10	0.1	?	0	-7	3.1
COC(=O)c1nnn(-c2nonc2N)c1CN1CCCC1	12	1.8	/	-0.1	-1.0	-3	-4	-1.6
O=C(O)c1ccc(N2CCN(C(c3ccccc3)c3ccccc3)CC2)c([N+](=O)[O-])c1	-8	-1.2	/	0.0	?	4	2	3.2
CCC(C)(C)NC(=O)C(c1ccc(F)cc1)N(Cc1cccs1)C(=O)c1cnccn1 (stereo not given)	14	4.8	/	2.3	-0.8	8	-20	3.6
Cc1ccccc1C1NC(=O)c2ccccc2O1 (stereo not given)	4	3.2	-5	0.0	-2.0	-21	2	-1.0
CC(C)Cn1c2c(c(O)c(C(=O)Nn3c(Cc4ccccc4)nc4ccccc4c3=O)c1=O)CCCC2	11	-5.8	46	-0.5	?	25	20	-1.4
CCc1ccc(-c2cc(C)no2)cc1S(=O)(=O)N1CCN(c2ccc(OC)cc2)CC1	-3	-0.4	2	0.6	1.7	31	4	4.8
Cc1ccc(Nc2nc3ccccc3c(=O)[nH]2)cc1C	12	-5.8	-1	1.8	-6.4	19	-1	-1.0
Cc1ccc(S(=O)(=O)Nc2ccc(NC(=O)c3ccc(F)cc3)cc2)cc1	10	-0.9	0	0.1	-2.0	17	0	0.8
CC(C)C(=O)N1CCC2(CC1)Oc1ccc(F)cc1C(=O)C21CC(c2ccc(Cl)cc2)=NO1 (stereo not given)	-7	2.1	3	0.6	0.3	24	31	0.3
COc1cccc(NC(=O)CCNC(=O)c2ccccc2Cl)c1	-2	-1.5	-5	-0.6	-6.1	-10	-4	4.6
Cc1cccc(CSc2[nH]c(=O)ncc2C)c1	4	3.0	6	0.1	4.2	8	1	2.1
CCOc1ccc(C2C(C(=O)c3ccco3)=C(O)C(=O)N2Cc2cccnc2)cc1OC (stereo not given)	2	0.0	-7	0.2	0.7	5	/	2.5
CC1Oc2ccccc2C=C1/C=N/NC(=O)c1ccccc1O (stereo not given)	-6	3.6	-2	0.4	-5.5	-14	0	/
O=C(CSc1nc2ccccc2c(=O)n1CCCO)NCc1ccccc1	-4	-2.5	1	0.5	-2.0	15	46	0.2
CCOc1ccccc1/C=N/n1c(COc2ccccc2)n[nH]c1=S	9	-3.8	-2	0.9	1.1	-2	-13	/
O=C(CO/N=C/c1ccc(Cl)cc1Cl)NNC(=O)c1cccc(Cl)c1	-1	1.2	3	-0.9	5.2	8	4	/
c1ccc(-c2nc(NCC3CCCO3)c3oc4ccccc4c3n2)cc1 (stereo not given)	-6	-1.5	-5	1.8	0.6	40	24	1.5
CCOC(=O)C1=C(O)CSC1=Nc1cccc2ccccc12	15	-4.6	2	0.5	0.0	-2	-41	2.7
Fc1ccccc1N1CCN(Cc2cc(-c3ccccc3)on2)CC1	-2	-0.5	-4	1.5	-2.7	-7	4	2.5
CC(=O)Nc1ccc(/C=C/c2ccc3cccc([N+](=O)[O-])c3n2)cc1	19	0.9	1	0.0	-1.1	4	1	7.8
O=C(CCCn1nnnc1CN1CCOCC1)N1CCC(c2ccc(F)cc2)C1 (stereo not given)	-2	-4.4	-3	-0.2	-3.8	-5	14	3.1
CCC(c1nnnn1C(C)(C)CC)N(CCCO)Cc1cc2cccc(C)c2[nH]c1=O (stereo not given)	-3	0.0	3	1.6	0.4	-1	2	0.7
Cc1ccc(NC(=O)Cn2cc([N+](=O)[O-])nc2C)cc1C	-3	-5.7	-1	0.0	-2.5	-11	-6	5.7
OCCN1CCN(CC(O)COc2ccc(Cl)cc2)CC1 (stereo not given)	5	-3.0	3	0.1	1.7	3	-7	-0.7
OCC1(Cc2ccccc2)CCCN(Cc2ccc(-c3ccco3)cc2)C1 (stereo not given)	3	1.1	0	-0.3	-1.0	43	-13	4.0
C=CCn1c(SCn2nnc3ccccc3c2=O)nnc1-c1ccc(F)cc1	-5	-5.5	-1	0.4	13	12	10	4.5
CCc1ccccc1NC(=O)Nc1ccc(F)cc1F	1	-0.3	7	-1.7	2.5	-7	-9	-0.1
Cc1cc(N2C(=O)C(O)=C(C(=O)c3ccco3)C2c2cccc(Oc3ccccc3)c2)no1 (stereo not given)	0	-3.1	-4	0.5	0.8	-11	52	/
CC1=C/C(=N\N=C2\NC(=O)C(CC(=O)Nc3ccccc3)S2)CC(C)(C)C1 (stereo not given)	3	6.2	0	-0.4	?	-10	16	/
CCCn1c(N)c(C(=O)CSc2nc(C)cs2)c(=O)[nH]c1=O	-3	-0.4	0	-0.1	0.7	-7	1	0.9
COCCNC(=O)CCc1c(C)nc2c(c(C)nn2-c2ccc(C)c(C)c2)c1C	1	-4.7	1	-1.2	?	10	-3	-66

Looked up one by one from the list above:
SMILES	B2AR ag	LANA-H2B inh	Beta apoptosis	Bfl-1 A1 inh	RanGTP-Imp inh	T cruzi inh	Calb FLC	UCH37 inh
O=C(CCCn1nnnc1CN1CCOCC1)N1CCC(c2ccc(F)cc2)C1 (stereo not given)	-2	-4.4	-3	-0.2	-3.8	-5	14	3.1
CCc1ccccc1NC(=O)Nc1ccc(F)cc1F	1	-0.3	7	-1.7	2.5	-7	-9	-0.1

Returning to the listing, starting three compounds before the break.
SMILES	B2AR ag	LANA-H2B inh	Beta apoptosis	Bfl-1 A1 inh	RanGTP-Imp inh	T cruzi inh	Calb FLC	UCH37 inh
CC1=C/C(=N\N=C2\NC(=O)C(CC(=O)Nc3ccccc3)S2)CC(C)(C)C1 (stereo not given)	3	6.2	0	-0.4	?	-10	16	/
CCCn1c(N)c(C(=O)CSc2nc(C)cs2)c(=O)[nH]c1=O	-3	-0.4	0	-0.1	0.7	-7	1	0.9
COCCNC(=O)CCc1c(C)nc2c(c(C)nn2-c2ccc(C)c(C)c2)c1C	1	-4.7	1	-1.2	?	10	-3	-66
CCN1CCC(NC(=O)Nc2cccc(C(F)(F)F)c2)CC1	6	-3.1	-4	-0.2	7.5	8	?	3.0
COc1ccc(OCCCC(=O)ON=C(N)c2ccccc2C)cc1	-7	0.6	-1	1.2	/	/	/	-1.1
COc1ccc2c(c1OC)CCC2=O	1	1.6	1	-0.1	-1.3	0	3	2.2
Cn1c2ccccc2c(=O)c2c(O)cccc21	-3	1.3	4	-0.2	19*	11	1	5.8
CN1CC(=O)N(CC(=O)Nc2cc(Cl)cc(Cl)c2)C1=O	5	-3.4	-8	1.1	-4.7	-7	-6	0.2
CCOc1ccc(Nc2ccc3nonc3c2[N+](=O)[O-])cc1	-8	-4.5	4	0.0	7.5	1	-2	5.6
Cc1ccc(NC(=O)C2CC(=O)N(Cc3ccccc3)C2)cc1S(=O)(=O)N1CCCCCC1 (stereo not given)	5	-0.7	-1	-0.3	1.6	25	25	-0.4
Cc1cc(=O)[nH]c(SCC(=O)Nc2ccnc3ccccc23)n1	-5	-1.6	-6	-0.5	4.2	20	13	-2.2
O=C(NNC(=O)c1ccccc1[N+](=O)[O-])c1cnccn1	-1	-0.5	-5	0.8	?	-12	-1	2.2
